Vaccinia inh: blocks a specific stage of Vaccinia orthopoxvirus infection, primary screen, cell-based, single point | Vaccinia-infected cells, mCherry/Venus stage reporter fluorescence; stronger effect = lower value; some inactives read as strong as hits | activity change (mCherry), % (no concentration beside the values) | 0.01% of 89,000 active | AID 1053133, 2014;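 active = mCherry past -33% and 40 or more points under the early reporter, replicates agreeing; inconclusive = past -33% without that gap or agreement; tested in A549 cells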;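 also: scaled between vehicle wells and reference inhibitor wells; 23 nL library stock went into each well; one replicate is shown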
Vaccinia inh Venus: recorded beside Vaccinia inh, whose call it bears; activity change (Venus), %; measured here: Venus reporter, other viral stage;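 negative = less Venus signal; first of two replicates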
* marks the source's active call; other numbers are inactive results; ? = inconclusive; . = no result given. Some of the compounds tested; count on the stated rates, not on these rows.

molecule	Vaccinia inh	Vaccinia inh Venus
CN(C)C(=O)c1cccc(-c2ccc([C@@H]3[C@@H](C#N)N(C(=O)C4CCC4)[C@@H]3CO)cc2)c1	3	7
C[C@H](CO)N1C[C@H](C)[C@H](CN(C)C(=O)C2CC2)OCc2cnnn2CCCC1=O	12	2
C[C@@H]1CN([C@@H](C)CO)S(=O)(=O)c2ccc(-c3ccc(F)cc3)cc2O[C@@H]1CN(C)CC1CC1	-33	-14
C[C@@H]1CN([C@H](C)CO)C(=O)c2ccccc2-c2ccccc2CO[C@H]1CN(C)C(=O)c1ccccc1	22	24
O=C(NCC[C@@H]1CC[C@@H](NS(=O)(=O)Cc2ccccc2)[C@@H](CO)O1)C1CCCC1	6	11
C[C@H]1CCCCO[C@@H](CN(C)C(=O)c2ccncc2)[C@@H](C)CN([C@@H](C)CO)C(=O)c2cc(NC(=O)c3ccncc3)ccc2O1	32	19
C[C@@H]1CN([C@H](C)CO)C(=O)c2cccc(NC(=O)C3CCCCC3)c2O[C@H]1CN(C)Cc1ccc(Oc2ccccc2)cc1	-1	-8
C[C@@H]1CN([C@H](C)CO)C(=O)c2cc(NS(=O)(=O)c3ccc(Cl)cc3)ccc2O[C@@H](C)CCCCO[C@H]1CN(C)Cc1ccc(Cl)c(Cl)c1	?	.
C[C@H](CO)N1C[C@H](C)[C@@H](CN(C)CC2CCCCC2)Oc2c(NC(=O)Nc3ccccc3)cccc2C1=O	5	3
O=S(=O)(N[C@H]1CC[C@@H](CCn2cc(-c3ccccn3)nn2)O[C@@H]1CO)c1cccc(Cl)c1	-23	-12
COc1ccc(CN(C)C[C@@H]2OCCCC[C@H](C)Oc3ccc(NC(=O)Nc4cccc5ccccc45)cc3C(=O)N([C@H](C)CO)C[C@H]2C)cc1	?	.
CO[C@@H]1CN(C)C(=O)c2ccc(NC(=O)NC(C)C)cc2OC[C@@H](C)N(C(=O)NC(C)C)C[C@@H]1C	15	10
C[C@H](CO)N1C[C@H](C)[C@@H](CN(C)C(=O)Nc2ccc3c(c2)OCO3)Oc2ccc(NS(=O)(=O)c3ccc(Cl)cc3)cc2C1=O	4	1
CN1C(=O)c2cc(NC(=O)C3CCCCC3)ccc2OC[C@H]2O[C@H](CC(=O)NCCc3ccncc3)CC[C@@H]21	4	8
Cc1noc(C)c1NC(=O)N(C)C[C@@H]1Oc2c(NS(C)(=O)=O)cccc2C(=O)N([C@@H](C)CO)C[C@@H]1C	35	18
COc1cccc(-c2ccc3c(c2)[C@@H]2[C@@H](CCN2C(=O)C2CC2)[C@@H](CO)N3)c1	-20	-2
Cc1ccc(S(=O)(=O)N[C@H]2CC[C@@H](CCNC(=O)C3CCOCC3)O[C@H]2CO)cc1	11	9
CCC(=O)Nc1ccc2c(c1)C(=O)N(C)[C@@H]1CC[C@H](CC(=O)Nc3cccc(OC)c3)O[C@@H]1CO2	-13	-5
O=C(C1CCCC1)N1CC(=O)N2[C@H](CO)[C@H](c3ccc(C#Cc4cccc(F)c4)cc3)[C@@H]2C1	?	.
Cc1noc(C)c1NC(=O)N(C)C[C@@H]1Oc2ncc(C#CCN(C)C)cc2C(=O)N([C@H](C)CO)C[C@H]1C	8	4
CCC(=O)N1[C@@H]2c3ccc(/C=C/c4ccccc4)c(=O)n3C[C@H]1[C@H](CO)[C@H]2C(=O)N(C)C	8	3
CN(C)C(=O)C[C@H]1CC[C@H]2[C@@H](COc3ccc(NC(=O)C4CCC4)cc3C(=O)N2C)O1	3	4
C[C@H]1CN([C@@H](C)CO)C(=O)c2cccc(NC(=O)C3CC3)c2O[C@H]1CN(C)C(=O)Nc1ccccc1	24	30
COc1ccc2c3c(n(C)c2c1)[C@H](CO)N(C(=O)Nc1ccc(F)cc1)CC31CCN(C(=O)c2ccccc2F)CC1	?	.
O=C(Nc1ccccc1F)N1CC(=O)N2[C@H](C1)[C@H](c1ccc(C#Cc3ccc(F)cc3)cc1)[C@@H]2CO	?	.
C[C@@H]1CN([C@@H](C)CO)C(=O)c2cc(/C=C/c3ccccc3)cnc2O[C@@H]1CN(C)C(=O)Nc1ccc(C(F)(F)F)cc1	?	.
COc1ccc(NC(=O)N(C)C[C@@H]2Oc3ccc(NC(=O)NC4CCCCC4)cc3C(=O)N([C@H](C)CO)C[C@@H]2C)cc1	19	13
Cc1noc(C)c1S(=O)(=O)Nc1ccc2c(c1)C(=O)N([C@H](C)CO)C[C@@H](C)[C@H](CN(C)Cc1ccc3c(c1)OCO3)OCCCC[C@@H](C)O2	?	.
C/C=C/c1ccc([C@H]2[C@@H](CO)N(C(C)=O)C23CN(C(=O)NC2CCCCC2)C3)cc1	-3	2
CCS(=O)(=O)NCC[C@@H]1CC[C@@H](NS(=O)(=O)c2cccc(F)c2)[C@H](CO)O1	0	-1
CCCNC(=O)c1cc2c(c(-c3cccc(-c4ccc(F)cc4)c3)n1)[C@@H](CCO)N([S@](=O)C(C)(C)C)C2	?	.
CCCC#Cc1cnc2c(c1)C(=O)N([C@H](C)CO)C[C@@H](C)[C@@H](CN(C)C(=O)c1cccc(F)c1)O2	-1	6
CCCN1[C@H](C(=O)N2CCCCC2)[C@@H](CO)[C@@H]2Cn3c(ccc(-c4ccccc4F)c3=O)[C@@H]21	12	18
O=S(=O)(c1ccc(F)cc1)N1C[C@H]2[C@@H](c3ccccc31)[C@H](CO)N2Cc1ccc2c(c1)OCO2	?	.
COc1ccc(CN(C)C[C@@H]2Oc3ccc(NS(=O)(=O)c4ccc(OC)cc4)cc3C(=O)N([C@@H](C)CO)C[C@H]2C)cc1	-3	0
CCCNC(=O)N1C[C@@H]2[C@H](c3ccccc31)[C@H](CO)N2Cc1cc(F)ccc1F	15	14
O=C(C[C@@H]1CC[C@@H](NC(=O)Nc2ccc(F)cc2)[C@H](CO)O1)NCc1ccccn1	10	5
C[C@@H]1CN([C@@H](C)CO)C(=O)c2cc(C#Cc3ccccn3)cnc2O[C@@H]1CN(C)Cc1cccnc1	11	14
O=C(C[C@@H]1CC[C@H]2[C@@H](COC[C@@H](O)CN2Cc2cc(F)ccc2F)O1)NCc1ccccc1	-3	0
CC(C)c1cn(CC[C@H]2CC[C@H](NS(=O)(=O)c3ccccc3)[C@@H](CO)O2)nn1	7	8
CC(=O)N1[C@@H]2c3ccc(C4=CCCCC4)c(=O)n3C[C@@H]2[C@@H](CO)[C@@H]1C(=O)N1CCCCC1	10	5
O=C(C[C@H]1CC[C@@H]2[C@H](COC[C@H](O)CN2Cc2cccc(C(F)(F)F)c2)O1)NCc1ccncc1	-9	-7
C[C@H]1CN([C@@H](C)CO)C(=O)Cc2cc(NS(=O)(=O)c3ccc(Cl)cc3)ccc2O[C@@H]1CN(C)S(=O)(=O)c1ccc(Cl)cc1	-4	6
O=C(C[C@@H]1C=C[C@@H](NC(=O)c2cnccn2)[C@@H](CO)O1)NCc1ccccc1F	-5	12
CN1CCN(C(=O)C[C@@H]2C[C@H]3c4cc(NC(=O)C5CCOCC5)ccc4O[C@H]3[C@H](CO)O2)CC1	6	1
COc1ccc(CN(C)C[C@@H]2Oc3ccc(NS(=O)(=O)c4ccc(Cl)cc4)cc3CC(=O)N([C@@H](C)CO)C[C@@H]2C)cc1	-5	-8
C[C@@H]1CN([C@H](C)CO)C(=O)c2cccc(NS(=O)(=O)c3ccc(Cl)cc3)c2O[C@@H]1CN(C)Cc1ccc(C(F)(F)F)cc1	?	.
COCCNC(=O)c1cc2c(c(-c3cccc(C#CCN(C)C)c3)n1)[C@H](CCO)N(S(=O)C(C)(C)C)C2 (stereo partly specified)	21	22
CCN1[C@@H]2c3ccc(C4=CCCC4)c(=O)n3C[C@H]1[C@H](CO)[C@H]2C(=O)NCc1ccccn1	20	31
COc1cccc(S(=O)(=O)N2C[C@H](O)COC[C@@H]3O[C@H](CC(=O)NCCCN4CCOCC4)CC[C@H]32)c1	-5	7

The results go on.
| Compound | Vaccinia inh | Vaccinia inh Venus |
| --- | --- | --- |
| CO[C@@H](CN(C)Cc1nccs1)[C@H](C)CN([C@@H](C)CO)S(=O)(=O)c1ccc(F)cc1 | 22 | 7 |
| C[C@@H]1CN([C@H](C)CO)C(=O)c2cccc(NS(=O)(=O)c3cn(C)cn3)c2O[C@H]1CN(C)C | 6 | -1 |
| C[C@H]1CN([C@@H](C)CO)C(=O)c2cc(NC(=O)C3CCCCC3)ccc2O[C@H]1CN(C)S(=O)(=O)c1ccccc1 | -4 | 7 |
| C[C@@H]1CN([C@@H](C)CO)C(=O)c2cccc(NC(=O)c3ccncc3)c2O[C@@H]1CN(C)Cc1ccc(-c2ccccc2)cc1 | -8 | -3 |
| Cc1ccc(-c2ccc([C@H]3[C@@H](CO)N4C(=O)CN(C(=O)Cc5ccccn5)C[C@@H]34)cc2)cc1 | -6 | -7 |
| CO[C@H]1CN(C)C(=O)c2ccc(NC(=O)NC(C)C)cc2OC[C@@H](C)N(C(=O)CC2CC2)C[C@@H]1C | 16 | 11 |
| C[C@@H]1CCCCO[C@@H](CN(C)C(=O)c2ccccc2)[C@@H](C)CN([C@H](C)CO)C(=O)c2cc(NC(=O)CCC(F)(F)F)ccc2O1 | -4 | -17 |
| Cc1ccc(S(=O)(=O)Nc2ccc3c(c2)C(=O)N([C@H](C)CO)C[C@H](C)[C@H](CN(C)C(=O)Cc2ccccc2)OCCCC[C@@H](C)O3)cc1 | 27 | 11 |
| COc1ccccc1-c1cn(CC[C@H]2CC[C@@H](NC(=O)C3CCCC3)[C@@H](CO)O2)nn1 | 4 | 8 |
| C[C@@H]1CN([C@@H](C)CO)S(=O)(=O)c2ccc(C#CCN(C)C)cc2O[C@@H]1CN(C)Cc1ccc2c(c1)OCO2 | 7 | -5 |

No new results follow: entries from further up.
| Compound | Vaccinia inh | Vaccinia inh Venus |
| --- | --- | --- |
| C[C@@H]1CN([C@@H](C)CO)C(=O)c2cccc(NC(=O)c3ccncc3)c2O[C@@H]1CN(C)Cc1ccc(-c2ccccc2)cc1 | -8 | -3 |
| Cc1ccc(-c2ccc([C@H]3[C@@H](CO)N4C(=O)CN(C(=O)Cc5ccccn5)C[C@@H]34)cc2)cc1 | -6 | -7 |
| CO[C@H]1CN(C)C(=O)c2ccc(NC(=O)NC(C)C)cc2OC[C@@H](C)N(C(=O)CC2CC2)C[C@@H]1C | 16 | 11 |
| C[C@@H]1CCCCO[C@@H](CN(C)C(=O)c2ccccc2)[C@@H](C)CN([C@H](C)CO)C(=O)c2cc(NC(=O)CCC(F)(F)F)ccc2O1 | -4 | -17 |

(cont.)
| Compound | Vaccinia inh | Vaccinia inh Venus |
| --- | --- | --- |
| C[C@@H]1CN([C@@H](C)CO)C(=O)c2cc(-c3ccccc3F)cnc2O[C@H]1CN(C)Cc1ccccc1 | -26 | -20 |
| C[C@@H]1CN([C@H](C)CO)C(=O)c2cc(NC(=O)c3ccncc3)ccc2O[C@@H](C)CCCCO[C@@H]1CN(C)Cc1ccc(C(F)(F)F)cc1 | ? | . |
| CC=Cc1ccc2n(c1=O)C[C@H]1[C@H](CO)[C@@H](C(=O)NC3CCCC3)N(C(=O)C3CC3)[C@@H]21 (mixture of isomers) | 14 | 8 |
| CC(C)(C)OC(=O)CC[C@@]12N=C(c3ccc(OCCCO)cc3)O[C@@H]1c1ccccc1CN(C(=O)c1ccccc1)C2=O | -10 | -19 |
| CNC[C@H]1Oc2ccc(NC(=O)Nc3ccc(F)cc3)cc2C(=O)N([C@H](C)CO)C[C@H]1C | 27 | 25 |
| COC(=O)c1c(CC[C@@H](CO)NC(=O)N[C@H](Cn2cc(Cc3ccccc3)nn2)C(C)C)oc(C(C)=O)c1C(=O)OC | 6 | 1 |
| Cc1ccccc1S(=O)(=O)N1C[C@H](O)COC[C@H]2O[C@@H](CC(=O)N3CCCCC3)CC[C@@H]21 | 25 | 11 |
| Cc1ccc(S(=O)(=O)N(C)C[C@H]2OCCCC[C@H](C)Oc3ccc(NC(=O)Nc4ccc(F)cc4)cc3C(=O)N([C@@H](C)CO)C[C@@H]2C)cc1 | -18 | -9 |
| C[C@@H](O)C#Cc1ccc2c(c1)O[C@@H](CN(C)Cc1cncnc1)[C@@H](C)CN([C@@H](C)CO)S2(=O)=O | 1 | 0 |
| COCC(=O)N1[C@@H](CO)[C@@H](c2ccccc2)C12CN(Cc1cc(F)ccc1F)C2 | -6 | 5 |
| CC(C)NC(=O)Nc1ccc2c(c1)CC(=O)N([C@@H](C)CO)C[C@@H](C)[C@@H](CN(C)Cc1ccc(C(F)(F)F)cc1)O2 | 3 | -8 |
| O=C(C[C@H]1C[C@@H]2c3cc(NC(=O)C4CCOCC4)ccc3O[C@@H]2[C@H](CO)O1)NCc1cccc(F)c1 | 15 | 12 |
| O=C(N[C@@H]1CC[C@@H](CCNC(=O)C2CCOCC2)O[C@H]1CO)c1ccncc1 | -7 | 3 |
| CNC[C@H]1Oc2ccc(NC(=O)C3CCCCC3)cc2C(=O)N([C@H](C)CO)C[C@H]1C | -21 | -16 |
| C[C@@H]1CN([C@H](C)CO)C(=O)c2cc(NC(=O)C3CCCCC3)ccc2O[C@@H](C)CCCCO[C@@H]1CN(C)Cc1ccc(C(=O)O)cc1 | 9 | -6 |
| C[C@@H]1CN([C@@H](C)CO)S(=O)(=O)c2ccc(-c3cncnc3)cc2O[C@H]1CN(C)C | 20 | 9 |
| CO[C@@H]1CN(C)C(=O)c2cc(NC(=O)Nc3ccc(F)cc3)ccc2OC[C@H](C)NC[C@H]1C | 8 | -8 |
| Cc1noc(C)c1S(=O)(=O)N(C)C[C@@H]1OCCCC[C@H](C)Oc2ccc(NC(=O)Nc3cccc4ccccc34)cc2C(=O)N([C@H](C)CO)C[C@H]1C | 9 | 24 |

Profiles from above.
Cc1noc(C)c1S(=O)(=O)N(C)C[C@@H]1OCCCC[C@H](C)Oc2ccc(NC(=O)Nc3cccc4ccccc34)cc2C(=O)N([C@H](C)CO)C[C@H]1C in the list: Vaccinia inh: 9; Vaccinia inh Venus: 24
CC(C)NC(=O)Nc1ccc2c(c1)CC(=O)N([C@@H](C)CO)C[C@@H](C)[C@@H](CN(C)Cc1ccc(C(F)(F)F)cc1)O2 in the list: Vaccinia inh: 3; Vaccinia inh Venus: -8

Bioassay records: PubChem, Broad Institute
